Source: PubChem BioAssay
NPYLR7 ag: agonists of mosquito NPYLR7 receptor, primary screen, cell-based, Aedes aegypti, calcium fluorescence, mosquito biting behavior | Aedes aegypti neuropeptide Y-like receptor 7 (NPYLR7) | HEK293T NPYLR7/Galpha15, GCaMP6s calcium fluorescence | AID 1259423, 2018 | actives 0.15% (n = 270,000) | activation, % at 10 µM; in the data active = activation above about 40%;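 also: 0% = vehicle and 100% = reference agonist at the receptor; some compounds past the cut are filed as inactive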
NPYLR7 ag max-min: second read-out of NPYLR7 ag, no call of its own (marks repeat the call); activation, %; measured here: Max-Min RFU normalised activation; some inactives read as strong as hits;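 span of the calcium signal over five minutes; 0% = vehicle and 100% = native peptide agonist; compound fluorescence can raise it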
* = called active by the depositor; & = joins results of further samples.

SMILES	NPYLR7 ag	NPYLR7 ag max-min
CC(C)Oc1cccc(NC(=O)C2(C)CCCN2C)c1 (stereo not given)	4.0	0.0
CS(=O)(=O)N1CCC(Oc2cccc(C(=O)N3CCc4ccccc4C3)c2)CC1	1.6	-0.7
O=C(Nc1ccc(-c2ccn[nH]2)cc1)C1CCCN(Cc2cc(F)ccc2F)C1 (stereo not given)	0.0	-2.9
CCOc1ccc(CN(Cc2cccc(C(F)(F)F)c2)Cc2nc(C(=O)NCc3ccc(F)cc3)co2)cc1	21.4	22.8
CCCCOc1ccc(C(=O)Nc2nnc(CC)s2)cc1	-3.8	-9.7
O=C(Nc1ncns1)c1cccc(CN2CC[C@H](O)C2)c1	0.6	0.2
CCCc1nnc(NC2CCCC3OCCC23)s1 (stereo not given)	-1.3&-21.6	-2.8&-21.3
CC(C)(C)n1c(NC(=O)C2CSc3ccccc3O2)nc2ccccc21 (stereo not given)	-4.2	-3.1
CCOc1ccc2nc(N3CCC(NC4Cc5ccccc5C4)CC3)nc(C)c2c1	2.9	-1.9
COc1cccc(OCc2nc(C(=O)NCc3cnc(C)cn3)co2)c1	0.1	-3.9
O=C(NCCCn1ccnc1)c1cnn2c(C(F)(F)F)cc(-c3ccco3)nc12	8.2	2.7
CCN(CC)C(=O)Cn1cc(SCC(=O)NC)c2ccccc21	-4.9	-6.0
CCc1nc2ccc(C(=O)NCCOc3ccc(OC)cc3)cn2c1N(C=O)CCC(C)C	-6.0	-9.0
c1ccc2c(OCCCn3c4ccccc4c4nc5ccccc5nc43)cccc2c1	0.5	2.5
Cc1ccc(CN(C)c2ncnc3sc4c(c23)CCC(C)C4)o1 (stereo not given)	5.7	2.7
Cn1c(=O)n(CCCO)c(=O)c2c1nc1n2CCCN1c1ccc(Oc2ccccc2)cc1	0.7	5.7
CCOC(=O)C(C)Sc1nc2c([nH]c3ccccc32)c(=O)n1C (stereo not given)	0.6	16.1
O=[N+]([O-])C1=C(Nc2ccc(-c3ccccc3)cc2)CS(=O)(=O)C1	3.1	4.0
CCOC(=O)c1cccc(N2C(=O)C3C4C=CC(C4)C3C2=O)c1 (stereo not given)	-3.4	-10.1
CCc1nn(-c2ccc(F)cc2)c(N2CCN(C(C)C)CC2)c1CN(CC(C)C)C(=O)Cc1cccs1	5.9	13.1
CC(C)NC(=O)NC1CCCN(C2CCCCCC2)C1 (stereo not given)	21.0	15.6
NC(=O)C1(N2CCCCC2)CCN(c2ncnc3sc4c(c23)CCNC4)CC1	-3.5	35.9
CO[C@]12C[C@@H](COC(=O)c3cncc(Br)c3)CN(C)[C@@H]1Cc1cn(C)c3cccc2c13	-7.7&-0.4	-14.0&-2.2
CC(C)N(c1ccc(Cl)cc1)S(=O)(=O)c1cnn(C)c1	8.8	5.5
CCCCN(C)C(=O)c1sc(=O)n(Cc2c(C)cccc2C)c1C	8.5	4.4
Cc1nc(N(C)C)ncc1C(=O)NCc1noc(-c2c(F)cccc2F)n1	-7.2	-9.2
O=C(Nc1ccc(F)cc1)c1cc(=O)c(OCc2ccccc2)c[nH]1	4.0	1.9
COc1cc(/C=C2\C(=O)N(c3ccccc3)N=C2C)ccc1OC(C)=O	-9.7	-1.7
Cc1ccc(C(=O)COC(=O)c2c(C)noc2C)s1	-1.1	5.0
CCNC(=O)CN1CCCN(C(=O)c2sc(-c3ccc(OCC)cc3)nc2C)CC1	-1.3	-2.3

One compound at a time, as listed above.
Results for `Cc1nc(N(C)C)ncc1C(=O)NCc1noc(-c2c(F)cccc2F)n1` = NPYLR7 ag: -7.2; NPYLR7 ag max-min: -9.2
Results for `NC(=O)C1(N2CCCCC2)CCN(c2ncnc3sc4c(c23)CCNC4)CC1` = NPYLR7 ag: -3.5; NPYLR7 ag max-min: 35.9

Next part
SMILES	NPYLR7 ag	NPYLR7 ag max-min
CCc1ccc(CN(C)C(=O)Nc2ccc(CC3CC(=O)NC3=O)cc2)cc1 (stereo not given)	1.3	0.5
O=S(=O)(Nc1cccc(-n2cnnn2)c1)c1ccc(F)cc1	9.1	9.3
CCc1c(C)nc(-n2nc(C)cc2NC(=O)c2ccccc2[N+](=O)[O-])[nH]c1=O	8.6	2.9
CC(C)Sc1nnc(CNC(=O)c2ccccc2)o1	1.1	-0.8
CC(C)CCNC(=O)C1CSCN1C(=O)C1CC1c1cccnc1 (stereo not given)	4.6	2.4
CCc1c(C)sc2nc(SCCC(N)=O)n(-c3ccc(OC)cc3)c(=O)c12	-6.8	-6.5
Cc1cc(C)nc(SCc2cc(=O)c(OC(=O)c3cccs3)co2)n1	-7.2	-0.5
O=C(CCc1ccccc1)NC1CCN(c2ncccn2)CC1	7.9	5.6
CCOc1ccc(N2C(=O)C(=Cc3ccc(O)c(OC)c3)SC2=S)cc1	0.7	-1.3
COC(=O)c1ccc(Oc2coc3c4c(ccc3c2=O)OCN(Cc2ccncc2)C4)cc1	2.0	0.2
COc1ccc(CC(=O)NC2CC(=O)N(Cc3cccc(F)c3)C2)cc1OC (stereo not given)	-2.7	-2.8
COc1ccc(NC(=O)CCC2CCCN(C(=O)CN3CCCC3=O)C2)cc1Cl (stereo not given)	6.8	4.3
CC(C)(C)NC(=O)CSc1nnc(N)s1	-1.1	-2.3
Cc1nn(C)c(C)c1S(=O)(=O)Nc1ccc2c(c1)OC1(CCCC1)O2	-0.1	4.2
O=C(c1csc(CSc2nnc(-c3ccncc3)n2-c2ccccc2F)n1)N1CCN(c2cccc(Cl)c2)CC1	-10.6	-0.5
O=c1cc(-c2c(-c3ccccc3)ncn2CCOCCO)[nH]c2ccccc12	7.6	3.5
CSc1ncccc1C(=O)N1CC(=O)N(Cc2cnn(C)c2)CC(OCc2cccnc2)C1 (stereo not given)	8.4	-4.5
CCCc1c(C(=O)N2CCc3c([nH]c4ccc(OC)cc34)C2c2ccc(OCc3ccccc3)cc2)cnn1-c1ccccc1 (stereo not given)	-8.6	-11.6
COc1ccc(-c2ncc(C(=O)N(C)c3ccccn3)s2)cc1	16.1	1.5
Cc1nc2c(c(=O)n1C)CCN(C(=O)C(C)Cn1cncn1)CC2 (stereo not given)	-7.1	11.9
CC1=CCC2COC(c3ccc[n+](Cc4ccccc4)c3)C1C2 (stereo not given)	2.2	-0.2
O=C(O)c1ccc(N2C(=O)CC(N3CCNC3=S)C2=O)cc1 (stereo not given)	0.9	-1.6
Cc1ccc(Cn2c(=O)n(CC3CCC(C(=O)N4CCOCC4)CC3)c(=O)c3sccc32)cc1 (stereo not given)	2.5	0.7
CSc1cccc(CN2CCCCC2c2ccccn2)c1 (stereo not given)	25.0	17.2
CCN=c1scc(CC(=O)OCC)n1-c1c(C)cc(C)cc1C	2.5	1.6
Cc1ccc(OCCCC(=O)Nc2nonc2C)cc1C	1.1	48.5
COCCNc1nc2c(C)cccn2c(=O)c1C=C1SC(=S)N(CCOC)C1=O	3.2	9.8
CC(=O)OCc1ccc(C2Nc3ccccc3C(=O)N2CCCN2CCOCC2)o1 (stereo not given)	3.6	1.8
COc1ccc(OC)c(C=NN2CCN(C3c4ccccc4-c4ccccc43)CC2)c1	4.6	2.3
COc1ccccc1-c1nnc(SCC(=O)c2ccc3c(c2)OCO3)o1	-2.7	-6.0
CC(c1cccc(O)c1)N(C)C(=O)c1ccc(CNC(=O)OC(C)(C)C)o1 (stereo not given)	7.8	11.7
COc1cccc(-c2nnc(SCc3ccc(C(=O)N4CCCC4)cc3)n2Cc2ccccc2)c1	1.9	0.7
O=C1NC(=O)C(CC(=O)N2CCC3(CCc4ccccc43)CC2)N1 (stereo not given)	8.0	6.8
COC(=O)c1ccc2c(c1)C1CC(C)(O2)N(c2cc(C)cc(C)c2)C(=O)N1 (stereo not given)	-2.1	2.3
Cc1ccc(C2C(CN3CCOCC3)=C(c3ccccc3)Oc3ccccc32)cc1 (stereo not given)	-9.6	-13.3
CS(=O)(=O)c1ccc(CNC(=S)NCC2CCCO2)cc1 (stereo not given)	-3.3	-4.4
CCOC(=O)CCCSc1nnc(Cc2ccccc2)n1-c1ccccc1C	-6.6	-4.7
CC(C)NC(=O)c1cccc(-c2cc(Cl)cc3c2OC(CN)C3)c1 (stereo not given)	3.0	2.2
CC(=O)N1CCN(c2cc(-c3ccccc3)nc(SCc3cccc(C(=O)N4CCCC4)c3)n2)CC1	-4.5	-2.6
CSc1ncccc1C(=O)N[C@H]1C[C@H]2C(=O)NCC(=O)N2C1	1.4	0.0
O=C(C1CC1)N1CCC(N2CCN(c3nccc4ccccc34)CC2)CC1	-1.4	-2.3
CCOC(=O)c1cc(-c2ccc(N3CCN(C(=O)COCc4ccccc4)CC3)cc2)n(-c2cccc(F)c2)n1	25.0	11.7
CC(=O)c1ccc(S(=O)(=O)NCCOc2ccc(-c3cccs3)nn2)cc1	-3.4	-4.0
CC(=O)NCCNC(=O)c1ccc2nc(C)c(N(C)Cc3ccc(NC(C)=O)cc3)n2c1	15.0	-2.2
CCOC(=O)C1(CCc2ccccc2)CCN(C(=O)c2ccc(Cn3cnnn3)cc2)CC1	14.2	12.3
Cc1ccc2c(c1)c(CNC(C)CCc1ccc(O)cc1)nn2C (stereo not given)	10.4	5.9
COc1ccccc1C1C(C(=O)OC(C)C)=C(C)NC2=C1C(=O)CC(c1ccccc1)C2 (stereo not given)	4.2	1.4
N#Cc1ccc(CN2CCN(C(=O)Nc3ccc(Cl)cc3)CC2)cc1	-1.5	-3.2
CC(=O)Nc1ccc(CN(C)c2c(C)nc3ccc(C(=O)NCCC(C)C)cn23)cc1	4.6	-5.8
Cc1nn(C)c(C)c1C=CC(=O)N1CCN(S(=O)(=O)c2c(Cl)cccc2Cl)CC1	3.7	10.4
CC(NC(=O)C1CCN(Cc2ccccc2)CC1)c1cccc2ccccc12 (stereo not given)	10.1	-4.1
CN(C)c1ccc(NC(=O)c2ccccc2Cl)cc1CN(Cc1ccc(F)cc1)S(=O)(=O)c1ccc(F)cc1	26.1	23.9
O=C(CCC1CCCCC1)NCCCn1nc(-c2cccnc2)ccc1=O	9.2	0.5
CCC(C(=O)N(Cc1ccc(F)cc1)Cc1cc(NC(=O)C2CCC2)ccc1N(C)C)c1ccccc1 (stereo not given)	4.4	15.6
Nc1nnc(C2CC/C(=C/c3ccc(Cl)cc3Cl)C2=O)s1 (stereo not given)	3.6	-4.0
CCOC(=O)c1c(NC(=O)c2c(C)noc2C)c(-c2cccc(F)c2)cn1C	18.0	26.7
CCC1=NN(C(=O)c2cccc(C)c2)C(O)(C(F)(F)F)C1 (stereo not given)	6.5	5.2
COc1cccc(Nc2nnc(C(O)C(C)C)s2)c1 (stereo not given)	3.2	1.9
Cc1nc2c(=O)n(Cc3ccccc3)nc(-c3ccc(F)cc3)c2s1	-1.1	-2.7
CCN(CC)S(=O)(=O)N(C)Cc1sccc1C	7.1	4.2

A second format for part of the listing above.
compound: CC(=O)c1ccc(S(=O)(=O)NCCOc2ccc(-c3cccs3)nn2)cc1
  NPYLR7 ag = -3.4
  NPYLR7 ag max-min = -4.0
compound: CC(=O)NCCNC(=O)c1ccc2nc(C)c(N(C)Cc3ccc(NC(C)=O)cc3)n2c1
  NPYLR7 ag = 15.0
  NPYLR7 ag max-min = -2.2
compound: CCOC(=O)C1(CCc2ccccc2)CCN(C(=O)c2ccc(Cn3cnnn3)cc2)CC1
  NPYLR7 ag = 14.2
  NPYLR7 ag max-min = 12.3
compound: Cc1ccc2c(c1)c(CNC(C)CCc1ccc(O)cc1)nn2C (stereo not given)
  NPYLR7 ag = 10.4
  NPYLR7 ag max-min = 5.9

(listing goes on)
SMILES	NPYLR7 ag	NPYLR7 ag max-min
COc1cc(NC(=O)c2cnn3c(C(F)(F)F)cc(-c4cccs4)nc23)c(OC)cc1Cl	13.8	15.9
C/C=C/CC(=O)Nc1ccc(OC)c(NC(=O)c2ccccc2)c1	-6.7	-8.7
COCc1cccc(CNC(=O)c2cccc(S(=O)(=O)NC3CCCC3)c2)c1	-7.4	-9.3
CCOC(=O)CNC(=O)N1C[C@@H](C(N)=O)[C@@H]2Oc3ccccc3[C@@H]21	0.7	9.5
CNC(=O)c1nnc2n1CCN(C(=O)c1ccc3c(c1)CCO3)C2	8.8	6.7
Cc1ccc2nc(N(Cc3cccnc3)C(=O)c3ccccc3[N+](=O)[O-])sc2c1	-11.2	-11.3
CC(NC(=O)c1cccs1)c1ccc(Cl)s1 (stereo not given)	2.8	2.2
C=CC[C@@H]1CC=C[C@@H](C)N1C(=O)CCn1cncn1	4.3	1.5
CCOc1ccccc1CN1CCN(Cc2ccc3nonc3c2)CC1CCO (stereo not given)	10.0	7.5
Cc1nc2c(c(N3CCc4c(Cl)cccc4C3)n1)CCNCC2	0.4	-1.7
c1ccc(N2CCN(C3CCCN(Cc4cccc5cccnc45)C3)CC2)cc1 (stereo not given)	20.8	11.3
CN(C)c1nc(C23CC4CC(CC(C4)C2)C3)cs1	0.7	35.8

An excerpt. The share of hits here may be higher or lower than overall.
